# Compound activity: PubChem BioAssay, Emory University Molecular Libraries Screening Center
# Measles inh: inhibitors of measles virus growth in cells, primary screen, measles RdRp inhibitor project, cell-based, single point, HTS; infected Vero cells, GFP fluorescence, 64 h; active compounds read low; z-score (no concentration beside the values); hit rate 0.1% among 33,000;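 active means z-score under -3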;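 further: score is relative to mean and SD of the compound wells of a plate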
# Numbers without * were called inactive. A portion of the library (hit frequency here may not be typical).
smiles,Measles inh
CC(=O)c1ccc(N=Cc2ccc(OC(=O)c3ccccc3)cc2)cc1,-1.7
CCOC(=O)c1c(NC(=O)c2ccc(S(=O)(=O)N3CCOCC3)cc2)sc2c1CCC2,-0.38
C=CCN(CC=C)S(=O)(=O)c1ccc(C(=O)N2CCc3ccccc3C2)cc1,-1
CCCC(=O)Nc1c2c(nn1-c1cccc(C)c1C)CS(=O)C2 (centres undefined),-0.59
CC(C)OC(=O)c1c(NC(=O)C2CCCCC2)sc2c1CCCC2,-0.43
O=C(Nc1ccc2nsnc2c1)N1CCCCCC1,0.51
O=C(Cn1cnc([N+](=O)[O-])n1)N1c2ccccc2Sc2ccccc21,-1.2
CC(=O)Nc1cc(C(=O)NCc2ccc(C)cc2)ccc1S(=O)(=O)c1ccc(Cl)cc1,0.38
COc1cc2c(cc1OC)C(c1ccccc1)N(C(=O)C(C)(C)C)CC2 (centres undefined),-0.23
Cc1ccc(S(=O)(=O)c2nc(CC(C)C)oc2N2CCCCC2)cc1,-0.81

# The list goes on:
smiles,Measles inh
CCCCn1c(SCC(=O)c2ccccc2)nc2ccc(N3CCOCC3)cc2c1=O,1
Cn1c(=O)n(C)c2cc(N=Cc3c(O)ccc4ccccc34)ccc21,-0.62
Cc1ccc2c(c1)n([O-])c1c([n+]2=O)CCCC1,-0.42
Nc1nc(SCC(=O)NCCN2CCOCC2)nc2sc3c(c12)CCCC3,-1.9
O=C(Nc1ccc(-c2ccc([N+](=O)[O-])cc2)cc1)c1cccc(Br)c1,-0.74
O=C(NC1CCCC1)c1c[nH]c2ccc(S(=O)(=O)Nc3cccc(C(F)(F)F)c3)cc2c1=O,-0.4
CC(C)C(=O)NCCSc1c(-c2ccccc2)[nH]c2ccccc12,-0.61
O=C(CCN1C(=O)c2ccccc2C1=O)N1CCc2ccccc2C1,1.5
CCc1sc(-c2cc3ccccc3oc2=O)nc1-c1ccc(C)cc1,-0.23
c1ccc(OCCSc2nc3ccccc3[nH]2)cc1,-0.83

# More results
smiles,Measles inh
CC1=C(C(=O)Nc2ccccn2)C(c2ccccc2Cl)C2=C(CCCC2=O)N1 (centres undefined),1.4
Cc1cccc(N2C(=O)CC(N3CCN(C4CC(=O)N(c5cccc(C)c5)C4=O)CC3)C2=O)c1 (centres undefined),-0.29
O=C(Nc1nc2c(s1)CCCC2)c1ccc(S(=O)(=O)N2CCc3ccccc32)cc1,0.06
COC(=O)c1ccc(Nc2cc(N3CCC(C)CC3)c3noc4c3c2C(=O)c2ccccc2-4)cc1,0.03
O=C(Nc1nc(-c2ccccn2)cs1)c1ccc(S(=O)(=O)N2CCCCC2)cc1,-0.2
Cc1cccc(NC(=O)COc2ccc(C(C)C)cc2)c1,-1.2
Cc1cccc(NC(=O)c2c(O)c3cccc4c3n(c2=O)CC4)n1,-0.32
CC1NC2(C(=O)c3ccccc3C2=O)C2C(=O)N(c3ccccc3)C(=O)C12 (centres undefined),1.6
CC1CCN(S(=O)(=O)N2CCCC(C(=O)NCc3ccc4c(c3)OCO4)C2)CC1 (centres undefined),1.1
CCC(C(=O)NCc1cccs1)N1C(=O)CSc2ccc(C(C)(C)C)cc21 (centres undefined),0.23

# Continued.
smiles,Measles inh
C=CCN(CC=C)S(=O)(=O)c1ccc(C(=O)Nc2nc3ccc4ccccc4c3s2)cc1,0.04
O=c1cc[nH]cc1[N+](=O)[O-],0.96
O=C(C1CCC1)N1CCc2cc(S(=O)(=O)N3CCC(N4CCCCC4)CC3)ccc21,0.17
CCOC(=O)c1cc(-c2ccc(F)cc2)no1,1.8
Cc1ccc(CS(=O)(=O)CCC(=O)NC2CCCC2)cc1,-0.1
Cc1sc(NC(=O)c2ccccc2)c(C(N)=O)c1C,-1
COc1ccc(CNC(=O)c2cc(OC)c(OC)c(OC)c2)cc1,-0.21
CCCn1cnc2sc(C(=O)Oc3ccc(OC)cc3)c(C)c2c1=O,0.14
CCc1ccc(C(=O)Nc2ccc(Cl)cn2)cc1,-0.76
O=[N+]([O-])c1ccc(C=CC=Nc2ccc3oc(-c4cccc5ccccc45)nc3c2)cc1,-0.11

# Carrying on:
smiles,Measles inh
Cc1ccc(C2C(C(=O)c3ccco3)=C(O)C(=O)N2c2nnc(C)s2)cc1 (centres undefined),1.5
CC(=O)Nc1ccc(S(=O)(=O)c2ccc(N)cc2)cc1N,-0.05
O=C(O)c1ccc(NS(=O)(=O)c2ccc(Cl)c(C(=O)Nc3ccccc3)c2)cc1,-0.09
COc1ccc(COC(=O)C2=C(C)NC3=C(C(=O)CC(c4cccs4)C3)C2c2ccc(F)cc2)cc1 (centres undefined),-0.59
CCCN1C(=O)C(O)(CC(=O)c2ccc(CC)cc2)c2ccccc21 (centres undefined),-0.31
CC(=O)N1CCc2cc(S(=O)(=O)CCC(=O)NCCc3ccccc3)ccc21,-0.43
COc1ccc(-c2cc(C(F)(F)F)c(C#N)c(SCC(=O)Nc3ccccc3F)n2)cc1,-0.86
CC1=C(C(=O)Nc2cccc(C)n2)C(c2cccc(Br)c2)C2=C(CCCC2=O)N1 (centres undefined),0.05
N#Cc1c(NC(=O)c2cc(-c3ccc4c(c3)OCO4)on2)sc2c1CCCC2,0.76
O=S(=O)(c1ccccc1Cl)C(F)(F)F,0.67

# (next part)
smiles,Measles inh
NS(=O)(=O)c1ccc(CCNS(=O)(=O)c2ccc3[nH]cc(C(=O)O)c(=O)c3c2)cc1,0.88
COc1ccccc1-c1coc2c(CN3CCOCC3)c(O)ccc2c1=O,0.53
CCOC(=O)C1=C(C)NC(=O)N(C(C)=O)C1c1ccccc1F (centres undefined),-0.78
CC(C)OC(=O)c1ccccc1C(=O)c1ccc(Cl)c([N+](=O)[O-])c1,-1.5
Cc1ccc(-c2nn(CCC(=O)NC3CCCCC3)c(=O)c3ccccc23)cc1,-0.56
COc1ccc(Cl)cc1-n1c(N)c(-c2nc3ccccc3[nH]2)sc1=S,-0.19
O=c1oc(C=Cc2ccc([N+](=O)[O-])s2)nc2ccccc12,0.38
S=c1nc(SCCOc2ccccc2)[nH]c2ccccc12,0.11
COc1ccccc1NC(=O)c1ccc(N(C)C)cc1,-0.27
CCOc1ccc(-c2cc(C(=O)N3CCCCCC3)c3ccccc3n2)cc1,0.03

# The results go on.
smiles,Measles inh
COc1ccccc1Nc1ncnc2sc(C)cc12,-0.83
CCSc1nnc(NC(=O)C2C3C=CC(C3)C2C(=O)O)s1 (centres undefined),-0.57
COC(=O)CSc1ncnc2c1oc1ccccc12,-0.75
Cc1n[nH]c(C)c1S(=O)(=O)N1CCC(C(=O)NCC2COc3ccccc3O2)CC1 (centres undefined),1.5
CN(C)CCNC(=O)c1cn(C2CCCCC2)c(=O)c2c1c1ccccc1n2C,1.9
CS(=O)C1CCCCC1(O)CSc1nc(-c2cccs2)cc(-c2ccccc2)c1C#N (centres undefined),-0.34
CCOC(=O)c1[nH]c2ccccc2c1CN(CC)CC,0.76
O=c1oc2ccccc2cc1-c1nnc(-c2cccnc2)o1,-0.15
CCCOc1ccc(C2NC(=O)NC(C)=C2C(=O)OCC(C)C)cc1 (centres undefined),0.69
Cc1ccc(-c2csc(NC(=O)c3ccc(S(=O)(=O)N(C)c4ccccc4)cc3)n2)o1,-0.9

# Continued.
smiles,Measles inh
COc1cc2nc3c4ccccc4n(C(C)C)c3nc2cc1OC,-1.7
COc1ccc(OC)c(Nc2nc(-c3c(C)nc4ccccn34)cs2)c1,-0.18
CCN(CC)S(=O)(=O)N1CCCC(C(=O)NCCC(C)C)C1 (centres undefined),-0.33
O=C(NC1CC1)c1ccc(Cn2c(SCc3cccc(Cl)c3)nc3ccccc3c2=O)cc1,0.41
O=C1CC(C(=O)Nc2cccc3ccccc23)C2(CCCCC2)O1 (centres undefined),0.39
CC1CCN(C(=O)CSc2nc(NCCc3ccccc3)c3ccccc3n2)CC1,-0.4
COc1ccc(NC(=O)c2cccc(C(=O)Nc3ccc(OC)cc3[N+](=O)[O-])n2)c([N+](=O)[O-])c1,0.32
CN1CCN(C(=O)c2cc([N+](=O)[O-])ccc2Cl)CC1,-0.11
O=C(Nc1cccc([N+](=O)[O-])c1)c1cc([N+](=O)[O-])cc2c1-c1ccc([N+](=O)[O-])cc1C2=O,-0.46
COc1cccc(C(=O)COc2ccc(N3C(=O)C4CC=CCC4C3=O)cc2)c1 (centres undefined),0.9

# Continuation.
smiles,Measles inh
COCCCNC(=O)c1ccc2c(c1)N(Cc1cccc(C)c1)C(=O)c1ccccc1S2,-0.43
CN(C)CCNC(=O)C1CCC(=O)N1Cc1ccc(F)cc1 (centres undefined),0.53
c1ccc(-n2ncc3c(Nc4cccc5c4CCCC5)ncnc32)cc1,-0.49
COc1ccc2c(c1)c(=O)c1ccccc1n2CC(=O)Nc1ccc(C)c(Cl)c1,0.09
CCCN1CCN(C(=O)c2sc3nc(C)nc(N(C)c4ccc(C(C)C)cc4)c3c2C)CC1,-0.47
O=C(Nc1ccc(NC(=O)c2ccc([N+](=O)[O-])o2)cc1)c1ccc(Br)cc1,-1.1
CC(=O)c1ccc(N2CCN(C(=O)C3CCC(Cn4c(=S)[nH]c5ccccc5c4=O)CC3)CC2)cc1 (centres undefined),-1.6
CCCNC(=O)c1ccc2c(c1)ncn2-c1ccc(OCc2ccccc2)cc1,-0.91
NC1=CC(=NS(=O)(=O)c2ccc(Br)cc2)c2ccccc2C1=O,-0.9
COc1ccc2cc3cc(C(=O)O)sc3nc2c1,-0.59

# Given field by field: four of the compounds above.
CC(=O)c1ccc(N2CCN(C(=O)C3CCC(Cn4c(=S)[nH]c5ccccc5c4=O)CC3)CC2)cc1 (centres undefined)
  Measles inh: -1.6

NC1=CC(=NS(=O)(=O)c2ccc(Br)cc2)c2ccccc2C1=O
  Measles inh: -0.9

COCCCNC(=O)c1ccc2c(c1)N(Cc1cccc(C)c1)C(=O)c1ccccc1S2
  Measles inh: -0.43

CCCN1CCN(C(=O)c2sc3nc(C)nc(N(C)c4ccc(C(C)C)cc4)c3c2C)CC1
  Measles inh: -0.47

# Next part:
smiles,Measles inh
O=C(O)c1ccc(S(=O)(=O)c2ccc3c(c2)C(=O)N(c2cccc(I)c2)C3=O)cc1,-1.5
COc1ccc(-c2cc(C(F)(F)F)n3ncc(C(=O)NCc4cccnc4)c3n2)cc1,1.6
CCCCn1c(=S)[nH]c2ccsc2c1=O,-0.11
CC1CCC(N2CC(=O)N(CCc3ccc(Cl)cc3)C(c3ccc(F)cc3)C2=O)CC1 (centres undefined),0.7
Cc1cc2ccccc2n2c(SCC(=O)NCC3CCCO3)nnc12 (centres undefined),-0.18
CN(CCc1ccccn1)Cc1ccc(Cl)cc1,-1.2
COc1cccc2c3c(c(C)nc12)CC(C)S3 (centres undefined),-0.25
O=c1[nH]c(=O)n(-c2ccccc2)c2c1C(C(F)(F)F)(C(F)(F)F)N=C(c1cccs1)N2,-0.29
CCCC1=NN(C(=O)c2ccc(N(C)C)cc2)C(O)(C(F)(F)F)C1 (centres undefined),-2.3
COc1ccc(OC)c(C2/C(=C(\O)c3ccc(Cl)cc3)C(=O)C(=O)N2c2nc3ccccc3s2)c1 (centres undefined),-1.1

# The listing continues:
smiles,Measles inh
Cc1ccc2c(C(=O)CNc3nncs3)c(C)[nH]c2c1,-1.1
O=c1[nH]c2ccsc2c(=O)n1-c1ccccc1,-0.58
CCOC(=O)c1cc2c(=O)n3ccccc3nc2n(CCOC)c1=NC(=O)c1cc(C)cc(C)c1,1
O=C(Nc1c(C(=O)NCCc2ccccc2)cnn1-c1ccccc1)c1ccccc1,-2.2
O=C(NCCCN1CCN(c2cccc(Cl)c2)CC1)c1cn(-c2ccc(Cl)cc2)c(=O)c2ccccc12,0.4
COc1cccc(N2CCN(C(=O)c3ccc(Cn4c(=O)[nH]c5cc(OC)c(OC)cc5c4=O)cc3)CC2)c1,-1.9
O=C(Nc1nc(-c2ccc(Cl)cc2)cs1)C1c2ccccc2Oc2ccccc21,-0.62
CC(C)NC(=O)COc1ccc2c(c1)C(=O)CC1(CCCCC1)O2,-0.36
CC(=O)Nc1cccc(N2CCOCC2)c1[N+](=O)[O-],-0.33
COc1ccccc1NC(=O)c1ccc(N2CC3CC(C2)c2cccc(=O)n2C3)c([N+](=O)[O-])c1 (centres undefined),-0.4

# Following part.
smiles,Measles inh
O=C1N2CN(C3CCCCC3)CN=C2SC1(CO)CO,0.26
Cc1ccc2nc3c(cc2c1)CCN3C,-1.2
CCCc1cc2c(=O)c(-c3ccc4c(c3)OCO4)c(CC)oc2cc1OC(=O)CC,-0.72
COC(=O)Cc1cc(=O)[nH]c(/N=C(\N)Nc2cc(Cl)ccc2OC)n1,-0.55
COc1ccc(-n2c(=S)[nH]c3cc(C(=O)NCCCN4CCCC4=O)ccc3c2=O)cc1,-1.1
CCCCNC(=O)C1CCN(S(=O)(=O)N2CCCC2)CC1,0.52
O=C(COc1ccccc1)Nc1ccc(Cc2ccncc2)cc1,1.8
COc1cccc(NCc2nc(-c3ccccc3)no2)c1,1.6
CCOC(=O)c1c(-c2ccccc2)csc1NC(C)=O,-1.4
O=[N+]([O-])c1ccc(N2CCN(S(=O)(=O)c3ccc(Cl)s3)CC2)cc1,-0.09

# (continued)
smiles,Measles inh
COc1ccc(NC(=O)C2=C(C)NC(=O)NC2c2cccs2)c(OC)c1 (centres undefined),-1
Cc1ccc(C(=O)COC(=O)c2ccc(Oc3c(Cl)cccc3[N+](=O)[O-])cc2)cc1,-0.83
CC(C)CCNC(=O)C1CCC(Cn2c(=O)[nH]c3ccccc3c2=O)CC1 (centres undefined),-0.31
CC1(C)CC(=O)c2c(nn(-c3ccccn3)c2-c2ccc(F)cc2)C1,-0.38
CCCSc1nnc2c(n1)OC(c1ccc3c(c1)OCO3)N(C(C)=O)c1ccccc1-2 (centres undefined),-1.9

# Laid out differently: two of the compounds above
CC(C)CCNC(=O)C1CCC(Cn2c(=O)[nH]c3ccccc3c2=O)CC1 (centres undefined)
- Measles inh: -0.31
Cc1ccc(C(=O)COC(=O)c2ccc(Oc3c(Cl)cccc3[N+](=O)[O-])cc2)cc1
- Measles inh: -0.83
